Compound activity from PubChem.
NPYLR7 agonist – mosquito NPYLR7 agonism | HEK293T NPYLR7/Galpha15, GCaMP6s calcium fluorescence | activation, % at 10 µM | 0.15% of 270,000 active; in the data active = activation above about 40%;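 also: 0% = vehicle and 100% = reference agonist at the receptor; some compounds past the cut are filed as inactive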
NPYLR7 agonist max-min – further read-out of NPYLR7 agonist, marked with its call; activation, %; measured here: Max-Min RFU normalised activation; some inactives read as strong as hits;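 span of the calcium signal over five minutes; 0% = vehicle and 100% = native peptide agonist; compound fluorescence can raise it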
Active calls of the source: *; & = joins results of further samples.

SMILES	NPYLR7 agonist	NPYLR7 agonist max-min
CC(=O)Nc1ccc(NC(=O)Nc2cc(F)c(N(C)C)c(F)c2)cc1	0	12
Cc1ccccc1S(=O)(=O)NC(=O)C1(C)CCN1C(=O)Cc1ccsc1 (stereo not drawn)	-1	-1
COc1cc(C(C2Sc3nc(C)nn3C2=O)N2CCCC(C)C2)cc(OC)c1OC (stereo not drawn)	-4	-2
Cc1cccc(C2CCCN(Cc3cn[nH]c3C(=O)O)C2)c1 (stereo not drawn)	26	19
Cc1cccc(-c2n[nH]n3c2nc(=O)c2ccccc23)c1	-5	-14
CCC(NCCc1ccccc1)c1nc2cc(Cl)ccc2c(=O)n1CC (stereo not drawn)	5	13
O=C(Nc1cnc2n1CCCC2)c1coc2c1C(=O)CCC2	14	11
O=C1CC(Sc2ccc(Cl)cc2)C(=O)N1c1ccc(F)cc1F (stereo not drawn)	15	10
CCN(C(=O)CNc1ccccc1N(C)C(C)=O)C1CC1	5	4
CNCC(=O)N1CC[C@@](O)(c2ccccc2)[C@H]2CCCC[C@@H]21	6	3
O=C(c1ccc2c(c1)OCO2)N1CCC(n2cnc3ccccc32)CC1	4	11
CCCS(=O)(=O)Nc1cc(C(=O)OC)cc(C(=O)OC)c1	5	3
COc1ccc(-n2c(CCC(=O)NCCCn3ccnc3)cc3c2-c2ccccc2CC3)cc1	1	2
COc1cccc(-c2nc(CCNC(C)Cc3cc(OC)c(OC)c(OC)c3)n3ccccc23)c1 (stereo not drawn)	17	15
Fc1ccc(CNc2nccn3ccnc23)cc1	4	2
CC(=O)N1CCCN(C(=O)C2CCC(=O)N(CC3CCCCC3)C2)CC1 (stereo not drawn)	-3	-4
N#Cc1cc([N+](=O)[O-])c2sc(C(N)=O)[n+]([O-])c2c1	5	-9
O=C(/C=C/c1cn(S(=O)(=O)c2ccc(Cl)s2)c2ccccc12)NCCCO	30	10
COc1cc(C(=O)Nc2ncc(C)s2)ccc1OC(F)F	2	0
COc1ccc(NC(=O)C2(C)CCN2C)cc1OC (stereo not drawn)	-1	0
N#Cc1cccc(CN2CCN3C(C(=O)Nc4cccnc4)=COC3=NC2=O)c1	-5	-6
COc1ccc(N2CCN(C(=O)c3cccnc3SCc3ccc(C(F)(F)F)cc3)CC2)cc1	-6	-11
Cc1ccccc1NC(C#N)c1ccc(Br)cc1 (stereo not drawn)	3	-2
CCn1cc(-c2c(-c3ccccc3)ncn2CC(O)Cc2ccccc2)c(C)n1 (stereo not drawn)	-1	0
CC(C)(C)c1ccc(C(=O)N2CCSC2c2ccccc2OCc2ccccc2)cc1 (stereo not drawn)	3	1
O=C(Nc1cccc(-c2cc3ccccc3[nH]2)c1)C1CCN(C(=O)C2=CCCC2)CC1	2	1
CCc1ncc(CN(C)S(=O)(=O)c2ccc(F)c(F)c2)s1	-6	-7
Cc1nn2c(=O)cc(CSc3nc(Cc4ccccc4)c(C)[nH]3)nc2s1	-1	-8
Cc1ccccc1Oc1ncccc1CNCc1ccc(OC(F)F)cc1	6	3
CN(CC1CCN(CCc2ccc(Cl)cc2)CC1)C(=O)c1cccc(F)c1F	14	0
CN1CCN2CCN(C(=O)c3ccc(-c4ccccc4)[nH]3)CC2C1=O (stereo not drawn)	-3	-3
CN1CC(=O)NC1=NC(=O)Nc1cccc(Cl)c1	4	-31
COC(=O)Cn1c(=O)c2c(nc3n2CCN3c2ccc(C)cc2C)n(C)c1=O	11	5
CN1C(=O)C2C=CC=CC2NC1=S (stereo not drawn)	24	10
Cc1ccc(CN(C)C(=O)COc2ccc(O)cc2)o1	7	5
CCOC(=O)NC1CCCN(C(C)C(=O)OCC)C1 (stereo not drawn)	7	4
COc1ccc(NC(=O)CN2C(=O)c3ccccc3C2=O)cc1O	-2	-7
CCN(CC)C(=O)c1csc(COc2cc(Cl)ccc2Cl)n1	-2	7
O=c1c2c(cnn2-c2ccc(F)cc2)c(C2CC2)nn1Cc1cccc(F)c1	-1	-1
CC(Oc1ccccc1)C(=O)N1CCN(Cc2ccc3c(c2)OCO3)CC1 (stereo not drawn)	25	15
CS(=O)c1nncn1-c1ncnc2c1oc1ccccc12 (stereo not drawn)	2	0
Cc1nn(-c2ccccc2)c(Oc2ccc(F)cc2F)c1CN(CC(O)Cc1ccccc1)C(C)C (stereo not drawn)	-9	1
Cc1ccc(-c2nc(N3CCN(CCN(C)C)CC3)ncc2-c2ccoc2)cc1	-2	-14
Cc1ccc(C)c2sc(NC(=O)CN(C)S(C)(=O)=O)nc12	-3	-6
Cc1ccc(C(=O)NC2(C#N)CCSC2)cc1Br (stereo not drawn)	-4	-3
O=C(c1cn(CC2CCCO2)cc2c(=O)n(-c3ccccc3)nc1-2)N1CCN(Cc2ccccn2)CC1 (stereo not drawn)	-4	-7
N#CC(C(N)=S)=C1CCCC1	0	-2
CC(=O)Oc1ccc(O)c2c1C(=O)C=CC2=O	7	10
CN(C)S(=O)(=O)N1CCC2(CC1)NC(=O)N(Cc1ccccc1)C2=O	6	4
Cc1ccc(NC(=O)N2CCC3(CC2)SCCN3C(=O)c2cccc(C)c2)cc1	0	-2
C=CCOCC(O)CN(Cc1ccccc1)CC1CC(c2ccccc2)=NO1 (stereo not drawn)	-3	2
O=C(NC1CCOc2ccccc21)c1cccc(S(=O)(=O)NCC2CCCO2)c1 (stereo not drawn)	8	3
O=C1CC(NC(=O)N2CCn3cccc3C2c2ccccc2F)CN1c1ccc2c(c1)OCCO2 (stereo not drawn)	7	2
Cc1ccc2nc(N3CCCCC3)c(C=C3SC(=S)N(Cc4ccccc4)C3=O)c(=O)n2c1	2	1
Cc1ccccc1OCc1ccc(-c2nc(C#N)c(NCC3CCCO3)o2)o1 (stereo not drawn)	0	24
c1ccc(CN2CCOC(CSc3nnc(NC4CC4)s3)C2)cc1 (stereo not drawn)	4	10
O=C(Nc1nnc(SCc2ccc(Br)cc2F)s1)c1ccccc1	14	19
CCOc1ccc(CN2C[C@@H]3C4CCC(CC4)[C@@H]3C2)cc1CO	-1	10
COc1ccc(C=C(C#N)S(=O)(=O)c2cc(Br)ccc2Br)c(OC)c1	3	4
CCn1nc(C)c(C(=O)Nc2cc3c(cc2SC)OCCO3)c1C	2	0

Further structures follow.
SMILES	NPYLR7 agonist	NPYLR7 agonist max-min
CCNC(=O)NC1CCN(c2ccccc2C(=O)NCCc2ccc(OC)c(OC)c2)CC1	1	16
CCc1[nH]c2c(CNC(=O)c3cc(C4CC4)no3)cc(C)cc2c1C	1	1
O=C(NCCc1nc2ccccc2[nH]1)Nc1ccc(Cl)c(C(F)(F)F)c1	1	-3
COc1ccc(CCn2ccc3c(cnc4nc(C(F)(F)F)nn43)c2=O)cc1OC	3	7
COc1ccc(C[C@H](C)NC[C@@H](O)c2ccc(O)c(NC=O)c2)cc1	19	15
COCCC1NC(=O)c2cnc(NCC3CC3)nc21 (stereo not drawn)	10	-1
COc1ccc(S(=O)(=O)CCCC(=O)N=c2sc3ccc(OC)cc3n2CCSC)cc1	3	-2
CC(C)c1nsc(N2CC3CCC2C3)n1 (stereo not drawn)	18	9
Cc1ccc(-c2nc(NC(=O)c3cc4c(s3)CCOC4)n[nH]2)s1	-3	597
CC(C)NC(=O)[C@@H]1C[C@@H](N)CN1CCn1c(=O)oc2ccccc21	-3	-5
COc1ccccc1-n1ccnc(SCc2cccc(C)c2)c1=O	0	7
Fc1ccc(-c2csc(=S)[nH]2)cc1	10	10
O=C1OC(Cc2ccccn2)C(=O)C1=C1SCCS1 (stereo not drawn)	2	8
Cc1c(Br)c2ccccc2n1CC(=O)Nc1nccn1CC(C)C	12	9
Cc1cnccc1NC(=O)Cc1c(C)noc1Cl	14&-8	10&-12
CCOC(=O)CCc1c(C)nc2ncnn2c1N1CCN(S(=O)(=O)c2ccc(C(F)(F)F)cc2Cl)CC1	13	6
OC(COc1ccccc1)COc1ccccc1	-2&1	-1&0
O=C(NCc1cccnc1)c1nn2c(C(F)(F)F)cc(-c3ccccc3)nc2c1Br	8	4
Cn1nc(C(=O)N2CCCC2)c2c1CCC(NCc1cccc(C(F)(F)F)c1)C2 (stereo not drawn)	0	-4
CCOC(=O)C(CC)n1cnc2c(nnn2-c2ccc(F)cc2)c1=O (stereo not drawn)	8	10

Reprinted from the listing (18 entries):
SMILES	NPYLR7 agonist	NPYLR7 agonist max-min
CCNC(=O)NC1CCN(c2ccccc2C(=O)NCCc2ccc(OC)c(OC)c2)CC1	1	16
CCc1[nH]c2c(CNC(=O)c3cc(C4CC4)no3)cc(C)cc2c1C	1	1
O=C(NCCc1nc2ccccc2[nH]1)Nc1ccc(Cl)c(C(F)(F)F)c1	1	-3
COc1ccc(CCn2ccc3c(cnc4nc(C(F)(F)F)nn43)c2=O)cc1OC	3	7
COc1ccc(C[C@H](C)NC[C@@H](O)c2ccc(O)c(NC=O)c2)cc1	19	15
COCCC1NC(=O)c2cnc(NCC3CC3)nc21 (stereo not drawn)	10	-1
COc1ccc(S(=O)(=O)CCCC(=O)N=c2sc3ccc(OC)cc3n2CCSC)cc1	3	-2
CC(C)c1nsc(N2CC3CCC2C3)n1 (stereo not drawn)	18	9
Cc1ccc(-c2nc(NC(=O)c3cc4c(s3)CCOC4)n[nH]2)s1	-3	597
CC(C)NC(=O)[C@@H]1C[C@@H](N)CN1CCn1c(=O)oc2ccccc21	-3	-5
COc1ccccc1-n1ccnc(SCc2cccc(C)c2)c1=O	0	7
Fc1ccc(-c2csc(=S)[nH]2)cc1	10	10
O=C1OC(Cc2ccccn2)C(=O)C1=C1SCCS1 (stereo not drawn)	2	8
Cc1c(Br)c2ccccc2n1CC(=O)Nc1nccn1CC(C)C	12	9
Cc1cnccc1NC(=O)Cc1c(C)noc1Cl	14&-8	10&-12
CCOC(=O)CCc1c(C)nc2ncnn2c1N1CCN(S(=O)(=O)c2ccc(C(F)(F)F)cc2Cl)CC1	13	6
OC(COc1ccccc1)COc1ccccc1	-2&1	-1&0
O=C(NCc1cccnc1)c1nn2c(C(F)(F)F)cc(-c3ccccc3)nc2c1Br	8	4

Additional structures:
SMILES	NPYLR7 agonist	NPYLR7 agonist max-min
COc1ccc(C(=O)N2CCN(Cc3ccnn3-c3ccccc3)CC2)cc1	4	3
N#Cc1cccc(C(=O)N2CCOC(c3ccccc3)C2)c1 (stereo not drawn)	3	1
O=S(=O)(c1cccc(F)c1)N(Cc1cccs1)C1CC1	1	0
CC(C)CN(CCC#N)C(=S)NCCN1CCOCC1	4	10
O=C(c1c(F)cc(F)cc1F)N1CCC(n2c(-c3ccccc3)nc3ccc(F)cc32)CC1	19	6
CCCC(=O)Nc1scc2c(C(=O)OCC)nn(-c3ccccc3)c(=O)c12	-1	-1
COc1ccc(CC(=O)N(Cc2nc3cc(C)ccc3o2)Cc2cc(F)ccc2F)cc1OC	-3	-12
COC(=O)c1ccc(Oc2c(C)oc3c4c(ccc3c2=O)OCN(Cc2ccncc2)C4)cc1	3	-1
CC1CN(Cn2nc(-c3ccncc3)n(-c3ccccc3)c2=S)CCO1 (stereo not drawn)	13	8
O=C(NCCn1nc(-c2cccs2)ccc1=O)c1ccc(C(F)(F)F)cc1	-1	-2
O=C(c1cn[nH]c1-n1cnnn1)N1CC[C@H]2CC[C@@H](C1)N2	16	9
COC1=C(c2ccc(F)cc2)C(=O)N(Cc2ccccc2)C1	3	-1
Cc1cccc(-n2c(SCC(=O)NC(C)C3CC3)nc3ccccc3c2=O)n1 (stereo not drawn)	1	10
CC(c1cccc(-c2nccn2Cc2ccoc2)c1)N(C)C (stereo not drawn)	23	13
CC(=O)c1ccc(NC(=O)N(C)c2c(C)nc3ccc(C(=O)N4CCCC(C(N)=O)C4)cn23)cc1 (stereo not drawn)	16	15
CCS(=O)(=O)c1ccc(C(=O)N(Cc2ccccn2)c2nc3cc(OC)ccc3s2)cc1	-4	-6
CCOC(=O)CCC(=O)N1CCC(Cc2ccc(-n3cccc3)cc2)CC1	-1	-1
COc1ccc(CCOC(=O)[C@@H]2CCCN2C(=O)CCCCCC(C)=O)cc1OC	-5	-15
COCCC1(C(=O)N2CCC(OC(C)(C)C)CC2)CCCC1	4	1
Cc1cccc(C2c3[nH]c4ccccc4c3CCN2C(=O)CCc2c(C)noc2C)c1 (stereo not drawn)	4&3	5&0
CC(C)N(C)S(=O)(=O)NCC(=O)N1CCCC1	4	1
C=C(C)CN(CC)C(=O)CN(C)Cc1ccc(Cl)cc1	5	5
CCOC(=O)C1CCN(/C=C2/C(=O)NC(=S)N(c3cc(Cl)cc(Cl)c3)C2=O)CC1	-2	-12
Cc1cc(C)c(S(=O)(=O)N2CCN(C(=O)c3ccc(-n4cncn4)cc3)CC2)c(C)c1	4	8
CC(CC(F)(F)F)C(=O)N1CCC(n2cnc3cc(C(F)(F)F)ccc32)CC1 (stereo not drawn)	33	20
O=C1C(=O)N(C2CCCC2)C(=O)N1Cc1cc(=O)n2ccsc2n1	2	2
Cc1cccc2nc(C(=O)NCCSc3nnnn3C)c(F)n12	1	-21
O=C(NC1CC(=O)N(CCc2ccc(F)cc2)C1)c1ccsc1 (stereo not drawn)	9	8
Cc1ccc(-c2ccnc(NCc3noc(CC(C)C)n3)n2)c(C)n1	-3	-8
C=CCN(C)c1nc(-c2cccc(C(F)(F)F)c2)ncc1C(=O)OCC	26	32
CCN(CC)C(=O)c1cc(-c2ccc(F)cc2)nc2cc(C(C)(C)C)nn12	-4	3
CCC(CC)C(=O)N1C[C@@H](CO)[C@@H]2Oc3ccc(Cl)cc3[C@@H]21	-4	5
Cc1cccc2c1NC1(CCN(Cc3ccc(Cl)cc3)CC1)NC2=O	17	8
COc1ccc(-c2nc3cc(C)cc(C)n3c2NC(C)(C)CC(C)(C)C)cc1	-10	-3
O=C(NCCCN1CCOCC1)C(C1CCCC1)N1CCN(C(=O)c2ccc([N+](=O)[O-])cc2)CC1 (stereo not drawn)	-2	4
Cc1cccc(C(=O)N=Nc2c(O)[nH]c3ccccc23)c1	6	-2
C=CCOCC1CN(CCOC)S(=O)(=O)c2cccnc2O1 (stereo not drawn)	1	14
CCOC(=O)[C@H]1C[C@@H]2O[C@H]1[C@H]1CN(C(=O)c3cccc(F)c3)C[C@H]1[C@@H]2O	7	12

Only part of the results is shown (hit frequency here may not be typical).
